Six1-Eya2 inh – qHTS Assay for Inhibitors of the Six1/Eya2 Interaction | activity change, % (test concentration not listed) | Homeobox protein SIX1 (Homo sapiens) + Protein phosphatase EYA2 (Homo sapiens), … | AlphaScreen GST-Six1/His-Eya2 binding, biochemical; active compounds read low; control for the full effect not named in the record | 360,000 compounds, 0.56% hits; in the data active = activity change below about -65%; inconclusive = about -30% to -65%; inactive = above about -30%; further: on the % scale 0 is the no-effect control and ±100 the full control effect
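AlphaScreen luminescence read after one hour at 37 °C in darkness. Pin-transferred compounds met GST-Six1 and His-Eya2 protein (5X stock 250 nM/500 nM) plus glutathione donor and Ni-chelate acceptor beads (5X, 50 ug/mL).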
D2 potentiator – Beta-Arrestin HTS for Positive Allosteric Modulators of the Human D2 Dopamine Receptor: Potentiators | D(2) dopamine receptor (Homo sapiens), P14416 | DiscoveRx D2 beta-arrestin cells, luminescence, 90 min; 100% = 57 uM dopamine signal | potentiation, % (no concentration beside the values) | 360,000 compounds, 0.23% hits | AID 624464, 2012; active = potentiation of 50% or more; inconclusive = 30% to 50%; inactive = 30% or less;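 further: compound concentration not given in the record; tested on top of an EC20 dose of dopamine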
Target sequence (P14416 whole entry, looked up): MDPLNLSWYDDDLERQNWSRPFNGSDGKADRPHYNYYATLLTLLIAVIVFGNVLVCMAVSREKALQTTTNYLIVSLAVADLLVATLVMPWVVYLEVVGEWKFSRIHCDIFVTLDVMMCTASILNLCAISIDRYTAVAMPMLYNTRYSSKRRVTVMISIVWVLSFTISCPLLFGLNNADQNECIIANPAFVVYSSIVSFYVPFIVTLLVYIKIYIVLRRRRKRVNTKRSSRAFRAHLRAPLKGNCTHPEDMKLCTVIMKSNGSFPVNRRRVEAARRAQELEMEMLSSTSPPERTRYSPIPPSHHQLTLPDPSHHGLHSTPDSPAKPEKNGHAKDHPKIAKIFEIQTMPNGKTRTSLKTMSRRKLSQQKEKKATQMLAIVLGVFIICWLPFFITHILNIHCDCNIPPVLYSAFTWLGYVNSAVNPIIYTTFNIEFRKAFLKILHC
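PathHunter beta-arrestin assay in DiscoveRx D2 cells. Compounds were added with an EC20 of dopamine (50 nM final) for 90 min at 37 deg C. Luminescence was read 1 h after detection reagent, with 57 uM dopamine as the EC100 control.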
TRPML1 agonist – qHTS for Agonists of the Human Mucolipin Transient Receptor Potential 1 (TRPML1) | Mucolipin-1 (Homo sapiens), Q9GZU1 | TRPML1-expressing cells, Ca2+ dye fluorescence, FDSS; host cell line not named in the record; reference of the full effect not given here | activation, % (concentration not given with the values) | 410,000 compounds, 0.12% hits | AID 624414, 2012; in the data active = activation above about 50%; inconclusive = about 30% to 50%; inactive = below about 30%; further: 0% is about no effect; the text of the record puts the active cut at 80%
Target sequence (Q9GZU1 whole entry, looked up): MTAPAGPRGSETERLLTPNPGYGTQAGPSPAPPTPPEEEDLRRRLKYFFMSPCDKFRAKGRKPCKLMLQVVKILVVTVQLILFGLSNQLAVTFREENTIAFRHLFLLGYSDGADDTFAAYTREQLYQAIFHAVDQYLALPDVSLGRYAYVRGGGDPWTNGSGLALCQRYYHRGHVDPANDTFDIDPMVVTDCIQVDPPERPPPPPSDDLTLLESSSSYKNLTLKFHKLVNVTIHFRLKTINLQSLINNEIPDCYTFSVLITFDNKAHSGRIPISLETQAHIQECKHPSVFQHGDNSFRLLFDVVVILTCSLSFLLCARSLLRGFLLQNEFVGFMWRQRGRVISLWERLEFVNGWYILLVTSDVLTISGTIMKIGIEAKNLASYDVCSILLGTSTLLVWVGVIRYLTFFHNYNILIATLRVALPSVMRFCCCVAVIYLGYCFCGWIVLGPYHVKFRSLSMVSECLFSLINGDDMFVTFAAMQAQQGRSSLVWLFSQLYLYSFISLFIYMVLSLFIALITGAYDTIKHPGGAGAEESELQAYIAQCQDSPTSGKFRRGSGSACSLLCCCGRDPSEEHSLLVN
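In this qHTS format, compounds were pin-transferred onto Ca8-dye-loaded TRPML1-DL cells induced with Tet overnight, and intracellular Ca2+ fluorescence was recorded kinetically for 110 s after a 10 s baseline. A subsequent 4uM final 54-4 (EC80) addition followed by a second 110 s read served as the antagonist phase.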
TRPV1 potentiator – HTS Assay for Compounds that Act as Potentiators of the Vanilloid Receptor 1; Transient receptor potential cation channel subfamily V member 1 (Homo sapiens), Q8NER1; AID 540277, 2011; 320,000 compounds, 0.02% hits; TRPV1-expressing cells, Fluo-8 calcium influx, capsaicin EC20 potentiation; host cell line not named in the record; control for the full effect not named in the record; potentiation, % at 8.33 µM; active means potentiation above 80%; inconclusive means 30% to 80%; inactive means below 30%; further: 0% is about no effect
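Fluo-8 calcium influx in TRPV1-expressing cells, kinetic read (ex 480/em 520 nm). Compound added and read 3 min for agonist activity, followed by capsaicin at EC20 final and 2 min further read for enhancement.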
CtBP-E1A inh – qHTS Assay for Inhibitors of the CtBP/E1A Interaction | AlphaScreen GST-E1A/His-CtBP binding, 1536-well; active compounds read low; control for the full effect not named in the record | 340,000 compounds, 0.49% hits | AID 651724, 2012 | activity change, % (no concentration beside the values) | CtBP / adenovirus E1A interaction (AlphaScreen); in the data active means activity change below about -65%; inconclusive means about -30% to -65%; inactive means above about -30%; further: on the % scale 0 is the no-effect control and ±100 the full control effect
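Protein mix (5X: 125 nM each GST-E1A, His-CtBP) was incubated with pinned compound 2 h at 37 deg C in dark, in 50 mM Tris pH 8.0 buffer with 300 mM NaCl. Glutathione donor and nickel acceptor beads followed; AlphaScreen signal read after 1 h.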
TRPML1 blocker – qHTS for Inhibitors of the Human Mucolipin Transient Receptor Potential 1 (TRPML1); 390,000 compounds, 0.02% hits; Mucolipin-1 (Homo sapiens), Q9GZU1; activity change, negative = inhibition, % (no concentration beside the values); TRPML1-inducible cells, Ca2+ dye fluorescence, FDSS; active compounds read low; inhibition of EC80 agonist-evoked calcium signal; in the data active means activity change below about -50%; inconclusive means about -30% to -50%; inactive means above about -30%;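 further: stimulus is agonist 54-4 at its EC80 concentration; on the % scale 0 is the no-effect control and ±100 the full control effect; compound concentration not given in the record; the text of the record puts the active cut at -80%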
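Calcium fluorescence in TRPML1-DL cells induced overnight with Tet: a 110 s read after compound pin addition, then a 110 s antagonist read after challenge with 54-4 at 4 uM final (EC80).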
* marks the source's active call; other numbers are inactive results; u = inconclusive; x = no result given; & = joins results of further samples.

SMILES	Six1-Eya2 inh	D2 potentiator	TRPML1 agonist	TRPV1 potentiator	CtBP-E1A inh	TRPML1 blocker
CC1(C)CC(=O)CC(=Nc2ccc(C(=O)O)cc2)C1	9	-15	-0.2	-7	9	1
C[C@H](CO)NC(=O)c1[nH]cnc1C(=O)Nc1ccc(CNC(=O)OC(C)(C)C)cc1	5	2	-0.8	x	0	5
COc1cccc2cc(C(=O)Nc3ccccc3C)/c(=N/NS(=O)(=O)c3ccccc3)oc12	2	-4	1.1	4	2	32
NS(=O)(=O)c1ccc(NC(=O)COC(=O)c2cn(-c3ccccc3)nc2-c2ccccc2)cc1	-1	-2	1.6	-9	1	-10
CCc1nnc(NC(=O)c2cc(S(=O)(=O)N3CCCCC3)ccc2C)s1	-1	2	1.1	0	1	3
Cc1ccnc(NC(=O)CCC(=O)N(CC(=O)NCCc2ccccc2)Cc2cccs2)c1	0	0	-0.2	-2	4	-17
Cc1ccc(S(=O)(=O)Cc2ccc(C(=O)N3CCN(c4ccccn4)CC3)o2)cc1	6	2	-0.1	-7	-20	19
COCC(=O)Nc1cc(C)c2c(=O)oc3ccccc3c2n1	4	-4	-0.3	-5	-8	-4
COc1ccc(NC(=O)c2cc(N3C(=O)C4C5CCC(C5)C4C3=O)ccc2Cl)c(OC)c1 (stereo not given)	-2	-2	-0.9	10	-2	-11
Cc1ccc(-n2nnnc2SCC(=O)NCC2(N3CCOCC3)CCCCC2)cc1	0	14	-0.2	5	5	-9
Cc1cccc(C)c1NC(=S)Nc1ccccc1C(=O)NCc1ccco1	-2	2	-0.1	9	3	-3
C#CCOCCOCCOCCNc1nc(N2CCN(C(=O)CCCCCCCCCCNC(=O)Cn3cc(C[C@@H](C)O)nn3)CC2)nc(N2CCN(C(=O)CCCCCCCCCCNC(=O)[C@@H](CCC(=O)O)n3cc(CCCCCN)nn3)CC2)n1	-6	-4	0.4	8	2	-14
CCCCNC(=O)CCn1c(=O)c2ccccc2n(Cc2ccc(Cl)cc2)c1=O	10	-5	-1.5	2	8	10
Cc1ccc(C(=O)N2NC(c3ccc(F)cc3)C3C(=O)N(c4ccc(C)c(C)c4)C(=O)C32)cc1 (stereo not given)	0	-4	5.3	9	0	-2
O=C1c2cnc3nc(SCc4ccc(Cl)cc4)nn3c2CC2c3ccccc3CCN12 (stereo not given)	0	-23	2.3	-1	9	41
CCOC(=O)CN(C)C(=O)C1CCCN1C(=O)OC(C)(C)C (stereo not given)	3	-6	0.6&0.3	x	10	7&12
COc1ccc(N2C(=O)C(Cl)=C(N3CCCC(C)C3)C2=O)cc1 (stereo not given)	-28	10	1.5	6	-12	19
Nc1nc(SCC(=O)NC2CCCC2)[nH]c(=O)c1NC(=O)c1cccs1	-6	-9	x	2	-9	x
Cc1ccc(-c2nnc(SCC(=O)N3CCCc4ccccc43)n2N)cc1	-1	-6	2.1	11	-15	-1
C/C(=N\Nc1ccc(S(N)(=O)=O)cc1[N+](=O)[O-])c1ccco1	u	0	1.9	-3	-20	-14
CCN1CCN(CCC(=O)Nc2cccc(C)c2)CC1	7	-6	0.1	13	0	31
Cc1ccc(NS(=O)(=O)c2ccc(-c3ccc(=O)[nH]n3)o2)cc1N(C)C	2	-5	-0.3	u	-14	19
CCOc1c(OC(C)=O)ccc(/C=C/c2ccc3cccc(OC)c3n2)c1[N+](=O)[O-]	u	-42	-0.4	1	-9	6
COc1cc(C(C)=O)ccc1OCC(O)CN1CCN(c2ccc(C)c(C)c2)CC1 (stereo not given)	-15	-15	-0.3	-12	-4	6
COC(=O)c1sccc1NC(=O)c1csc(C)c1	31	-6	6.5	-5	26	51
Cc1cc(C)c(NC(=O)c2ccccc2CCc2ccccc2)c(C)c1	5	-14	5.6	-13	8	20
CC(Sc1nccn1C)C(=O)c1c(N)n(C)c(=O)n(C)c1=O (stereo not given)	2	5	-1.3	5	-2	7
O=C(COc1cccnc1[N+](=O)[O-])N1CCN(C(=O)c2ccco2)CC1	3	-24	-0.5	0	7	18
O=C(Nc1ccc2[nH]ncc2c1)c1ccc(F)cc1	-4	-1	-0.5	-15	0	-8
COc1cc(OC)cc(-c2c(-c3cccs3)c3cc(-c4ccc(N(C)C)nc4)ccc3n2C)c1	-2	-3	-0.6	1	-1	-3
Cc1ccc(C(=O)NC2CCCCC2)cc1	6	-11	-0.5	-27	7	3
CCSC(=O)N=Nc1ccc(O)cc1	-4	24	-0.3	x	18	0
O=C(O)/C=C/C(=O)Nc1c(F)cccc1F	2	0	4.9	10	6	6
O=C(Nc1ccc(Cl)cn1)c1ccccc1[N+](=O)[O-]	-1	-7	1.4	-20	0	-11
O=C(CCCOc1ccccc1)Nc1cccc(S(=O)(=O)N2CCOCC2)c1	-5	-39	-0.1	x	4	0
Cc1cc(C(=O)OCC(=O)NC2CCCC(C)C2C)c(C)o1 (stereo not given)	3	2	0.6	x	x	-6
O=C(NCCc1ccccc1)c1nc2nc(-c3cccs3)cc(C(F)(F)F)n2n1	u	-8	1.0	4	u	-12
CSc1ccccc1NC(=O)CN(C)CC(=O)c1c(C)[nH]c2ccccc12	-9	-24	1.9	-2	-1	0
CCCCN(C(=O)c1cc(S(=O)(=O)N2CCCCC2)ccc1Cl)c1c(N)n(CCC)c(=O)[nH]c1=O	0	2	2.2	x	5	-18
Cc1ccc(NC(=S)N2CCN(S(=O)(=O)c3ccccc3)CC2)cc1	-1	-8	1.2	-3	1	-8
CC(OC(=O)/C=C/c1cccs1)C(=O)Nc1ccc(S(N)(=O)=O)cc1 (stereo not given)	-3	-12	2.6	-2	x	20
CCOC(=O)Nc1ccc(OC)cc1S(=O)(=O)N1CCCCC1	-2	2	-0.7	1	0	12
O=C1C(Cc2ccccc2)Nc2ncnc(N3CCOCC3)c2N1Cc1ccc(Br)cc1 (stereo not given)	1&-4	-81&-22	-0.8&1.0	-20	-1&-4	1&-6
CCC(=O)N1CCN=C1SCc1cccc(C(F)(F)F)c1	15	-3	0.8	-11	x	14
O=C1CCC(=O)N1c1ccc(S(=O)(=O)Nc2cccc(Br)c2)cc1	-4	-7	0.5	7	-2	10
COc1cc(NC(=O)CSc2nc(=O)n(CCN3CCOCC3)c3c2CCCC3)cc(OC)c1	-10	-8	3.6	5	-28	8
COc1ccc(OC)c(NC(=O)COC(=O)CN2C(=O)NC3(CCCC3)C2=O)c1	5	-12	0.1	-1	12	18
Cc1cccc(N=C2N=C(N)c3ccccc32)c1	5	-4	-1.0	-4	13	4
COc1ccc(-c2c(NC(=O)C(C)C)n(C)c3ccccc3c2=O)cc1	3	2	0.1	5	10	-3
O=C(CN1CCOCC1)Nc1ccccc1F	3	-2	0.9	-1	-2	-20
CCOC(=O)N1CCC(NC(=O)c2ccc3c(c2)N(CC)CCS3)CC1	-14	-7	1.2	x	-9	-7
COc1ccc(COC(=O)c2nc3nc(C)cc(C)n3n2)cc1F	0	-22	-0.3	-19	4	19
O=C(NC(=S)Nc1cccnc1)c1cccs1	7	-43	-1.2	3	13	-6
O=C(Cn1nc(Cc2ccncc2)c2ccccc2c1=O)Nc1cccnc1Cl	9	1	0.6	-7	4	-5
CC(C)OCCCNC(=O)Cc1ccc(F)cc1	1	-3	-0.4	4	3	-13
CCCNC(=O)C1(C)CCN1C(=O)Cc1ccc(-c2ccccc2)cc1 (stereo not given)	8	-9	-0.7	x	4	x
CC(C)c1ccc(S(=O)(=O)N2CCN(C(=O)c3cccc(S(=O)(=O)N4CCOCC4)c3)CC2)cc1	-1	4	-0.5	x	2	-1
CC(=O)c1c(O)cc(=O)n(-c2ccccc2)c1-c1ccc(C)cc1	5	-3	0.5	x	-1	-21
Nc1nc(Nc2ccc(Cl)cc2)nc(NCc2ccco2)c1[N+](=O)[O-]	-15	-6	1.9	7	-15	10
COc1cc(NC(=O)CSCc2ccccc2)c(C(=O)O)cc1OC	2	4	-0.1	-10	5	8
Continuation.
SMILES	Six1-Eya2 inh	D2 potentiator	TRPML1 agonist	TRPV1 potentiator	CtBP-E1A inh	TRPML1 blocker
c1ccc(-c2ccc3[nH]ccc3c2)cc1	6	-14	0.3	1	-15	2
O=C(CCCC(=O)OCC(Cl)=C(Cl)Cl)Nc1ccc(F)cc1	8	-10	0.8	11	-2	6
N#C/C(=C\c1ccccc1)C(=O)NNS(=O)(=O)c1cccc([N+](=O)[O-])c1	6	14	0.5	x	4	-14
OCc1cccc(-c2cnc3c(Nc4cccc(OC(F)(F)C(F)F)c4)nccn23)c1	-7	-9	0.0	x	-10	x
CCOc1cccc(CN2CCC(N3CCC(C(=O)NCC4CCCO4)CC3)CC2)c1 (stereo not given)	0	-7	0.0	-1	-2	-4
COc1cc(Cl)c(C)cc1NC(=O)COC(=O)C1=COCCO1	8	-6	-0.5	-6	3	-4
CCCOc1ccc(-c2cc(C(F)(F)F)c(C#N)c(SCC(=O)O)n2)cc1	-3	-2	-0.4	25	0	-2
CCOC(=O)N1CCC(NC(=O)c2cc(S(=O)(=O)N(CC)CC)ccc2F)CC1	23	3	-0.6	7	45	-11
CCOc1cc(C(C(=O)NCC2CCCO2)N(C(=O)Cn2nnc3ccccc32)c2ccccc2C)ccc1O (stereo not given)	2	0	-0.8	3	7	-2
Cc1occc1C(=O)Nc1cccc(C(=O)NCc2ccccc2)c1	-1	-19	-0.9	-5	-2	9
Cc1ccc(S(=O)(=O)N2c3ccccc3NC(=O)C2CC(=O)Nc2ccccc2)cc1 (stereo not given)	7	-16	1.4	20	-4	8
CC(Sc1nnc(N)s1)C(=O)Nc1nccs1 (stereo not given)	-3	10	-0.3	-4	2	-21
O=c1c2sccc2nc(SCc2cc(=O)n3cc(Br)ccc3n2)n1Cc1ccccn1	-7	-5	2.9	4	-3	25

Compound activity as filed in PubChem.
